Screens deposited in PubChem by National Center for Advancing Translational Sciences (NCATS).
2A Renilla: lowers the Renilla signal of an FMDV 2A StopGo reporter | Potency, µM (highest dose often 57.5 µM), for inactives: at the highest dose signal change, negative = less light | HEK cells with a luciferase reporter of 2A StopGo recoding | AID 1745857 | 120,000 compounds, 0.32% hits; active means well fitted falling curve with a large enough effect; inconclusive means small, poorly fitted or top-dose-only effect; inactive means no such curve, though single readings can be large or run the other way; note: nearly all actives have a fitted effect of over 55% in size; overnight with compound
StopGo FLuc: lowers the firefly signal of an FMDV 2A StopGo reporter; HEK cells with a luciferase reporter of 2A StopGo recoding; Potency, µM (top dose mostly 57.5 µM), without a hit: top-dose signal change, negative = less light; 120,000 compounds, 0.23% hits; AID 1745856; active = well fitted falling curve with a large enough effect; inconclusive = small, poorly fitted or top-dose-only effect; inactive = no such curve, though single readings can be large or run the other way; note: nearly all actives have a fitted effect of over 60% in size; overnight with compound
Active calls of the source: *; u = inconclusive; & = joins results of further samples; [ ] = another dose, or the depositor's remark. % is set by controls: 0 for no effect and ±100 for the full control effect; potency is the fitted concentration of half-maximal effect. A portion of the library (hit frequency here may not be typical).

The line under a structure holds: 2A Renilla | StopGo FLuc
- c1ccc(Cc2nnc(SCc3nc(-c4cccs4)no3)n2-c2ccccc2)cc1
  125.2%[activator] | -13.4%
- Cc1cc(C)c(NC(=O)C(C)n2nc(-c3ccc(C)c(C)c3)ccc2=O)c(C)c1 (stereo not given)
  -3.2% | -4.6%
- COc1cccc(CN2C(=O)c3ccccc3Sc3ccc(C(=O)NCCc4ccc(Cl)cc4)cc32)c1
  8.3% | 31.2%[activator]
- N#Cc1c(-c2ccccc2)cc(-c2ccccc2)nc1SCC(=O)Nc1ccc(Cl)cc1
  -22.0% | 0.0%
- CCc1ccc(NC(=O)N2c3ccccc3Sc3ccccc32)cc1
  -11.5% | 11.1%
- CCCC(=O)Nc1ccccc1NC(=O)c1ccc(C)cc1
  1.7% | 3.5%
- CCn1c(C)c(C)c2cc(C(=O)NCCCN3CCCCC3)ccc21
  -17.3% | -18.1%
- O=C(Cc1ccccc1)N(Cc1ccc2cc[nH]c2c1)C1CC1
  72.0%[activator] | -4.1%
- O=C(NCc1ccc2c(c1)CCN2C(=O)c1ccncc1)c1ccccc1Cl
  -13.0% | -19.9%
- O=C(Nc1ccccc1Cl)C1Sc2nnc(-c3ccccc3)n2NC12CCCC2 (stereo not given)
  11.2% | -10.8%
- C=CCOc1ccc(/C=C(\C(=O)c2ccc(OCC)cc2)c2nc3ccccc3s2)cc1
  31.9%[activator] | 77.2%[activator]
- O=S(=O)(c1cccc(F)c1)N1CCC(c2nc3ccccc3s2)CC1
  -2.3% | 0.0%
- Fc1ccc(N/N=C/c2ccc(-c3ccccc3)cc2)c(F)c1
  33.0%[activator] | 255.0%[activator]
- CCc1cc(=O)oc2cc(C)cc(OCc3nn[nH]n3)c12
  -4.6% | 13.3%
- Cc1[nH]nc2c1C1(C(=O)Nc3ccc(Cl)cc31)C(C#N)=C(N)O2 (stereo not given)
  -1.3% | -6.8%
- CCOc1ccccc1C(=O)N1CCC(c2nc3ccccc3o2)CC1
  -25.2%&13.7% | u
- Cc1ccc(C)c(NC(=O)CSc2cn(CC(=O)N3CCCC3)c3ccccc23)c1
  43.5%[activator] | 8.5%
- Cc1ccc(C)c(N2CCN(S(=O)(=O)c3cc(C(=O)Nc4ccccc4C(F)(F)F)ccc3F)CC2)c1
  8.6% | -2.8%
- O=C(Cc1csc(-c2ccc(F)cc2)n1)Nc1ccnn1Cc1ccc(Cl)cc1
  0.6% | -24.7%
- O=C(Cn1ccc2ccccc21)NCc1ccccc1Cl
  -0.3% | 66.3%[activator]
- COc1ccccc1-c1nnc(C2CCN(S(=O)(=O)c3ccc(F)c(C)c3)CC2)o1
  5.1% | -13.7%
- Cc1ccc(Cl)cc1NC(=O)COC(=O)c1ccc(C)c(S(=O)(=O)N2CCCCC2)c1
  54.7%[activator] | -9.9%
- Clc1ccc(C=Nc2ccc(Nc3ccccc3)cc2)c(Cl)c1
  -7.3% | 43.1%[activator]
- CCOc1ccc(NC(=O)Cn2cc(S(=O)(=O)N3CCN(c4ccccc4F)CC3)c3ccccc3c2=O)cc1
  5.2% | -20.0%
- CCCNc1c(NC(=O)Nc2ccccc2)c(=O)oc2ccccc12
  2.3% | -4.7%
- CCCCc1c(C)c2ccc3oc(/C(=N/O)c4ccc(C)cc4)c(C)c3c2oc1=O
  8.3% | 7.1%
- COc1ccc(C(=O)/C=C/c2ccccc2OC(F)F)c(OC)c1
  0.0% | 0.0%
- Fc1ccc(/C=C2\CCCC3=C2N=C2SC=C(c4ccc(F)cc4)N2C3c2ccc(F)cc2)cc1 (stereo not given)
  9.8% | -2.4%
- Cc1ccc(NC(=O)CSc2n[nH]c(-c3ccccc3)n2)cc1C
  u | u
- CCNC(=S)Nc1cccc(C(F)(F)F)c1
  3.0% | -5.6%

Next section (two carried over from the part before).
The line under a structure holds: 2A Renilla | StopGo FLuc
- Cc1ccc(NC(=O)CSc2n[nH]c(-c3ccccc3)n2)cc1C
  u | u
- CCNC(=S)Nc1cccc(C(F)(F)F)c1
  3.0% | -5.6%
- OC1CCN(c2nc(C(F)(F)F)nc3ccccc23)CC1
  6.5% | 3.0%
- O=C(N[C@@H]1CSC[C@H]1O)c1ccccc1
  -0.6% | 3.2%
- CCOC(=O)N1CCN(CC(=O)Nc2oc3ccc(Cl)cc3c(=O)c2-c2ccc(C)cc2)CC1
  -16.4% | 67.5%[activator]
- CC1(C)CC(=O)c2cc(C(=O)Nc3ccc(Cl)cc3)c(=O)[nH]c2C1
  5.3% | 186.2%[activator]
- CCN(Cc1ccccc1)c1nc2c(S(=O)(=O)c3ccccc3)nnn2c2ccc(Cl)cc12
  -12.2% | -13.5%
- COc1ccc(CCNC(=O)c2ccc3c(c2)N=C(C)c2cc(C)ccc2S3)cc1OC
  6.2% | -10.1%
- O=C(O)CCCCCCNC1c2ccccc2CCc2ccccc21
  -10.1% | -17.4%
- c1ccc(CN2CCC(NC3CCCC3)CC2)cc1
  -23.0% | -14.5%
- O=C(Nc1ccc2nc(SCCOc3ccccc3)sc2c1)c1ccccc1F
  -11.9% | -10.6%
- Cc1ccc(CCNC(=O)c2ccc3c(c2)N(Cc2ccccc2F)C(=O)c2ccccc2S3=O)cc1 (stereo not given)
  -9.8% | -15.4%
- CC1=C(C(=O)Nc2ccccc2)C(c2ccc(Br)cc2)n2nc(CCCO)nc2N1 (stereo not given)
  -8.3% | -11.4%
- Cc1cccc(Cn2cc(C(=O)Nc3cc(F)ccc3F)ccc2=O)c1
  u | 0.0%
- N=C(N)c1cccs1
  11.9% | 12.1%
- Cc1oc(-c2ccccc2)nc1CSCC(=O)Nc1ccc(F)c(F)c1
  36.7%[activator] | 5.8%
- Cc1oc(-c2nc(C#N)c(N3CCCCCC3)o2)cc1S(=O)(=O)N1CCCCC1
  1.3% | -4.8%
- Cc1nnc(N2CCC(C(=O)NC(C)C)CC2)c2nn(-c3ccc(Cl)cc3)c(C)c12
  -5.6% | -11.4%
- COc1ccc(OC)c(CNc2ncnc3onc(C)c23)c1
  -7.8% | 14.1%
- CCc1nc(NCc2ccccc2)c(C#N)c2c1CCCC2
  2.3% | 12.8%
- O=C(NCCN1CCN(c2ccccc2)CC1)Nc1ccccc1Br
  -16.6% | -23.1%
- CCOCCOC(=O)COc1ccc2c(=O)c(Oc3ccccc3Br)coc2c1
  2.3% | 1.2%
- Cc1ccc(Sc2ccc(NC(=O)c3cc(C)ccc3C)cc2)c(C)c1
  -21.1% | -2.9%
- CONC(=O)c1ccc(C#N)cc1
  8.0% | -0.8%
- CCOc1ccc(-c2nnc(SCC(=O)Nc3cccc(Cl)c3C)o2)cc1
  -6.5% | 0.0%
- Cc1nc(CC#N)n[nH]1
  17.7% | 10.9%
- COc1ccc(CNC(=S)NCC(C)N2CCCCC2C)cc1 (stereo not given)
  0.8% | -3.5%
- COc1ccc(-n2c(SCC(=O)Nc3ccc(C(N)=O)cc3)nc3ccccc3c2=O)cc1
  0.0% | 18.5%
- O=C(Nc1ccc(SCc2cccnc2)cc1)C1CC2CCC(C1)C21SCCS1 (stereo not given)
  u | -34.5%
- CCOc1ccc2c(c1)cc(C(=O)NCc1ccc(C)cc1)n2C
  -5.3% | -10.1%
- Cc1cc(C)cc(OCCC(=O)N(CC#N)C2CC2)c1
  -8.0% | 16.4%
- COc1ccc(OC)c(CNC(=O)c2cc(-c3ccc(Cl)s3)nc3ccccc23)c1
  32.6%[activator] | -10.5%
- O=C(Cn1c(=O)oc2cc(S(=O)(=O)NCc3ccccc3)ccc21)NCc1ccccc1Cl
  22.7% | u
- CC(NC(=O)CSc1nc2cc(Cl)ccc2s1)C1CC2CCC1C2 (stereo not given)
  -23.0% | -11.6%
- COc1cccc(NC(=O)Cc2ccc(NC(=O)N3CCCCc4ccccc43)cc2)c1
  8.4% | 3.3%
- CCCCCCCCCCCCCCCCCC(=O)OCC(O)CO (stereo not given)
  -4.9% | -9.6%[11.5 µM]
- Cc1ccc(OCCCC(=O)Nc2sc3c(c2C(N)=O)CCC(C)C3)cc1 (stereo not given)
  0.0% | 0.0%
- COc1cc(/C=C2\NC(=O)NC2=O)c(Br)cc1OCC(=O)O
  -8.0% | -15.3%
- COc1ccc(-c2cc3nc(C)c(CCC(=O)NCc4ccc(F)cc4)c(C)n3n2)c(OC)c1
  -6.9% | -8.9%
- CCOc1ccc(C(=O)COc2ccc(NC(C)=O)cc2)cc1
  -5.5% | 4.0%
- CCc1ccc(N2CCC(CN)C2)cc1 (stereo not given)
  -1.3% | 48.9%[activator]
- COC(=O)c1c(NC(=O)c2c(-c3ccccc3Cl)noc2C)sc2c1CCCC2
  7.5% | 15.7%
- CCOC(=O)N1CCN(C(C(=O)O)c2c[nH]c3cc(Cl)ccc23)CC1 (stereo not given)
  -10.1% | -3.2%
- COc1ccc2c(C)c(CC(=O)NCCCN3CCOCC3)c(=O)oc2c1
  -7.2% | -8.3%
- N#CCC(=O)Nc1ccc(C(=O)OCc2ccc(Br)cc2F)cc1
  8.3% | 1.4%
- Cc1ccc(-c2nc(NCCN3CCOCC3)c3ccccc3n2)cc1
  8.6% | 55.2%[activator]
- O=C(NC(C1CC1)C1CC1)c1cccc(Cl)c1
  0.0% | 24.7%

Continued:
Structure,2A Renilla,StopGo FLuc
CCOC(=O)c1cc2cc(Oc3ccccc3)ccc2[nH]1,37.7%[activator],215.9%[activator]
CN(c1ccc(Cl)cc1)S(=O)(=O)c1nnc(NC(=O)C2CCCCC2)s1,-6.3%,-2.3%
CCc1ccc(Cc2cnc(NC(=O)C3=Cc4ccccc4OC3)s2)cc1,53.7%[activator],27.6%
Cc1ccc(C)c(N2CCN(S(=O)(=O)c3ccc4c(c3)CCCN4C(=O)C3CCC3)CC2)c1,4.2%,-13.3%
CCOc1cccc2sc(N(Cc3cccnc3)C(=O)C3CCCCC3)nc12,15.3%,-19.0%
COc1ccc(-c2nc3c(c(SCc4cc(C)ccc4C)n2)Cc2c(CO)cnc(C)c2O3)cc1,-4.8%,-16.3%
CCOc1ccccc1NC(=O)c1nc(-c2ccccc2)oc1C,-5.9%,11.8%
Nc1nccnc1C(=O)NCc1ccc(Cn2cnc3ccccc32)cc1,u,u
Cc1cc(=O)oc2cc(OCC(=O)OCC(=O)Nc3ccc(C(F)(F)F)cc3)ccc12,-9.9%,-4.9%
CC(=O)NC(=S)NNC(=O)c1ccc(-c2ccccc2)cc1,6.9%,145.7%[activator]
CC(=O)c1ccc(NC(=O)Cn2cc(S(=O)(=O)Cc3cccc(Cl)c3)c3ccccc32)cc1,183.3%[activator],0.4%
O=C(O)C1CC(=O)N(c2ccc(S(=O)(=O)Nc3cc(F)cc(F)c3)cc2)C1 (stereo not given),11.7%,8.6%
COC(=O)C1CN(Cc2cn(CCOC(C)=O)nn2)CCS(=O)(=O)N1Cc1ccc(OC)cc1 (stereo not given),4.8%,3.2%
Cn1nc(CC(=O)NCc2ccccc2CN2CCCCC2)c2ccccc2c1=O,-10.8%,-7.0%
Cc1ccc2nc(-c3ccc(N/C(N)=N/c4nc(C)cc(C)n4)cc3)sc2c1,u,u
S=C(Cc1nc(-c2ccccc2)cs1)N1CCOCC1,6.0%,83.2%[activator]
COc1cc(C(=O)OCC(=O)c2ccc(F)cc2F)cc(Cl)c1O,0.2%,12.7%
Cc1cc(C)c2nc(N(Cc3cccnc3)C(=O)c3ccc(S(=O)(=O)N(C)C)cc3)sc2c1,-5.3%,-0.1%
CCN(CCNC(=O)CS(=O)(=O)Cc1nc(-c2ccc(C)cc2)oc1C)c1ccccc1,17.9%,-2.8%
COC(=O)c1c(NC(=O)CCCOc2cccc(C)c2)sc2c1CCC(C)C2 (stereo not given),-3.7%,0.0%
Cc1ccc(Cl)cc1NC(=O)C1CCN(c2nc3ccccc3n3cccc23)CC1,-24.6%,-8.3%
Cc1ccc(NC(=O)C2CCCC2)cc1,21.5%,119.9%[activator]
O=C(Nc1ccccc1Cl)N1CCC(CN2CCCCC2)CC1,-4.8%,4.1%
CCCCOc1ccc2c(C)c(CC)c(=O)oc2c1,23.6%,158.2%[activator]
Clc1ccc(NN=C2c3ccccc3-c3ccccc32)cc1,14.1%,0.0%
COc1cc(NS(=O)(=O)c2cccc(Cl)c2C)cc2sc(NC(=O)c3ccccc3)nc12,120.7%[activator],u
CCNc1c(NC(=O)c2cc(OC)c(OC)c(OC)c2)c(=O)oc2ccccc12,41.0%[activator],26.6%
CCOc1ccccc1C(=O)Nc1ccc(S(=O)(=O)Nc2ncccn2)cc1,-11.4%,-16.5%
Cn1nc(CC(=O)Nc2ccc(Cl)cc2)c2ccccc2c1=O,2.82µM*,u
CC1(C)CC(NC(=O)CCNC(=O)c2ccc(C(C)(C)C)cc2)CC(C)(C)N1,-11.5%,-15.2%

By substructure: those above containing a COOH group.
Structure,2A Renilla,StopGo FLuc
O=C(O)CCCCCCNC1c2ccccc2CCc2ccccc21,-10.1%,-17.4%
COc1cc(/C=C2\NC(=O)NC2=O)c(Br)cc1OCC(=O)O,-8.0%,-15.3%
CCOC(=O)N1CCN(C(C(=O)O)c2c[nH]c3cc(Cl)ccc23)CC1 (stereo not given),-10.1%,-3.2%
O=C(O)C1CC(=O)N(c2ccc(S(=O)(=O)Nc3cc(F)cc(F)c3)cc2)C1 (stereo not given),11.7%,8.6%

Additional compounds:
Structure,2A Renilla,StopGo FLuc
CC1CCCCN1CCCNc1nc(-c2ccncc2)nc2ccccc12 (stereo not given),-16.0%,-3.9%
CC(Oc1ccc2ccc(=O)oc2c1)C(=O)NCCc1ccc(S(N)(=O)=O)cc1 (stereo not given),-9.4%,-16.9%
Cc1ccc(SC(=O)COc2ccccc2Cl)cc1,-13.2%,-6.7%
CC(=O)OC1CCC2(/C=N/O)[C@H]3CCC4(C)C(C5=CC(=O)OC5)CCC4(O)[C@@H]3CCC2(O)C1 (stereo not given in full),1µM*,0.794µM*
